Assay outcomes: PubChem, National Center for Advancing Translational Sciences (NCATS)
miR-21 reporter: raises the signal of a miR-21 reporter. HeLa miR-21 FLuc reporter, luciferase, 48 h. Potency, µM (top dose mostly 38.3 µM), for the others: at the highest dose reporter change, positive = more light. 340,000 tested, under 10 active; active = well fitted rising curve with a large enough effect; inconclusive = small, poorly fitted or top-dose-only effect; inactive = no such curve, though single readings can be large or run the other way;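 note: % of control where 0% means no effect; miR-21 action dims this reporter so a rising signal means less miR-21 action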
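Luminescence from a firefly luciferase reporter carrying a miR-21 binding site downstream, stably expressed under a CMV promoter in HeLa cells that make miR-21 endogenously, reports miRNA modulation after 48 h compound exposure up to approximately 40uM final.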
Rango-impB inh: Rango-importin beta binding inhibition | Q14974 | Rango CFP/YFP FRET sensor + importin beta, 45 min | Potency, µM (doses to about 92.2 µM), without a hit: at the top dose inhibition of complex formation | actives 0.031% (n = 340,000); active = rising FRET ratio curve, often small or poorly fitted; inconclusive = mostly compound fluorescence or quenching in the first reads; inactive = flat curves in all reads;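 note: potency is the fitted concentration of half-maximal effect; 0% = DMSO wells and 100% = buffer wells lacking importin beta; nearly all actives have a fitted effect of over 15% in size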
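FRET biosensor Rango (snurportin 1 IBB between N-terminal EYFP and C-terminal Cerulean), 50 nM in PBS/1 mM DTT/0.02% Tween-20/0.1% BSA, preincubated 5 min RT with compound; 0.125 microM importin beta added, 45 min RT, CFP/YFP FRET ratio read.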
GLA inh pH 4.5: alpha-galactosidase A (human) inhibition, pH 4.5; 230,000 tested, under 10 active; AID 1467; purified enzyme, 4-MU-alpha-Gal fluorescence, pH 4.5; P06280; activity change, negative = inhibition, % at 105 µM; inconclusive = small, poorly fitted or top-dose-only inhibition, or a rising curve; inactive = flat fitted curve, though single readings scatter; no compound was filed as active;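 note: 0% = full activity with enzyme and -100% = basal without enzyme; dose as in the result columns while the protocol names 77 µM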
Target sequence (P06280 whole entry, looked up): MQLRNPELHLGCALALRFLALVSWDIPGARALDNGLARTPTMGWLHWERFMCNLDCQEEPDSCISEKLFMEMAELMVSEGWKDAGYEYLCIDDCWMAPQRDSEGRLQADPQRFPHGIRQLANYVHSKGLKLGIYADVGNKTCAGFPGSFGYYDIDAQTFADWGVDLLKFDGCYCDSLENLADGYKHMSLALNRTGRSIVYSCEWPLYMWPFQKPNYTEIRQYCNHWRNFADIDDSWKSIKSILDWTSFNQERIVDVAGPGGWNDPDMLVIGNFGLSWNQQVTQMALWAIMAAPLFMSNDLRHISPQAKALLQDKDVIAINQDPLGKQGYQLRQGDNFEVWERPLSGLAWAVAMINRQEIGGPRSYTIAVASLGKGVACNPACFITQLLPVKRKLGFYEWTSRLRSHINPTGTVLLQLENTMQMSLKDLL
Rango release inh: prevents RanGTP from dissociating the Rango-importin beta complex; actives 0.071% (n = 340,000); Biochemical FRET Rango-importin beta, RanGTP-induced dissociation; Potency, µM (series often up to 46.1 µM), for inactives: at the highest dose activity change, negative = inhibition; active means falling FRET ratio curve, often poorly fitted, with flat reads before Ran was added; inconclusive means other falling curves, or compound fluorescence or quenching; inactive means flat or rising ratio curve;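 note: potency is the fitted concentration of half-maximal effect; % of control where 0% means no effect; nearly all actives have a fitted effect of over 45% in size; -100% = wells without RanGTP and RCC1; the record marks most hits as doubtful in a second field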
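Compounds sat 5 min at room temperature with 0.1 uM Rango biosensor plus 0.25 uM importin beta, then FRET pre-read. RanGTP-RCC1 (0.6 uM Ran, 2mM GTP, 0.2 uM RCC1) added for 45 min, and the CFP/YFP post-read measured blocked complex dissociation.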
* = called active by the depositor; ? = inconclusive; / = no result given; [ ] = dose if it differs, or a comment.

SMILES | Rango release inh | GLA inh pH 4.5 | miR-21 reporter | Rango-impB inh
Cc1cc(NC(=O)c2c(F)c(F)c(F)c(F)c2F)no1 | 0% | 1 | -9% | -1.1%
O=C(Nc1nnc(CSCc2ccccc2F)s1)c1cccc([N+](=O)[O-])c1 | -13% | -3 | -4% | 0.8%
Cc1c(C(=O)OC/C(O)=C(\C#N)c2nc3ccccc3[nH]2)oc2ccc(Br)cc12 | ? | 7 | 1% | ?
CN(Cc1ccccc1)C(=O)COc1cc(Cl)ccc1Cl | 5% | / | -18% | -4.7%
COC(=O)c1ccc(NC(=O)CCCCCn2nnc3ccccc3c2=O)cc1 | -3% | / | -3% | 4.9%
CC(C)NC(=O)C(=O)Nc1cc2c3c(c1)CCC(=O)N3CCC2 | 2% | / | 2% | 1.4%
CC(C)(C)N1C(=O)[C@H]2[C@@H](c3ccc(Br)cc3)N3C(=O)N(c4cccc(F)c4)C(=O)[C@@]3(C)[C@H]2C1=O | 0% | / | / | 0.2%
O=C(C1=C[C@@H](c2ccc(C(F)(F)F)cc2)C[C@@H](OCc2ccc(CO)cc2)O1)N1CCN(Cc2ccc3c(c2)OCO3)CC1 | -2% | -13 | ? | 3.6%

Going on with the list:
SMILES | Rango release inh | GLA inh pH 4.5 | miR-21 reporter | Rango-impB inh
CCC(C(=O)NC1CCCCC1)n1c2ccccc2c2nc(=O)cc(C)n21 (centres undefined) | -3% | / | 2% | -2.9%
CCN(CC)C(=O)C(=O)c1cn(CCOc2ccccc2)c2ccccc12 | 8% | -9 | -5% | -4.4%
NC(=O)C1CCN(CC(=O)Nc2cccnc2Cl)CC1 | 34% | 1 | -4% | -1.2%
Cn1c(SCc2nc(-c3ccccc3)no2)nnc1-c1cccs1 | 11% | -4 | -20% | 3.7%
CN1CCCC(CN2c3ccccc3Sc3ccccc32)C1 (centres undefined) | ? | / | 0% | -0.1%
NC(=O)c1cc(-c2ccccc2)sc1NC(=O)Cc1ccc(S(=O)(=O)N2CCOCC2)s1 | ? | 15 | -3% | 1.3%
Cc1cc(=O)[nH]c(-c2ccc(Cl)cc2)n1 | 27% | -5 | -14% | 1.3%
O=C(O)/C=C/C(=O)c1ccc(O)cc1 | 7% | -7 | -10% | -2.8%

(further entries)
SMILES | Rango release inh | GLA inh pH 4.5 | miR-21 reporter | Rango-impB inh
O=Nc1c(O)[nH]c2c(F)cccc12 | -14% | -2 | -22% | 6.2%
COc1cc2cnc(C3=CCCCC3)cc2cc1OC | 1% | / | / | 5.2%
CC(C)c1ccc(N(CC(=O)NCc2ccc(F)cc2)C(=O)c2csnn2)cc1 | 12% | 4 | 16% | 2.9%
COc1ccc(Cl)cc1NC(=O)c1nnn(CC(=O)Nc2ccc3c(c2)OCO3)c1N | 22% | / | -4% | 3.1%
N#Cc1ccc(S(=O)(=O)N2CCC(C(=O)Nc3cccc(C(=O)NC4CC4)c3)CC2)cc1 | -3% | / | / | 0.6%
CC(C)CC(COCc1ccc(Cl)cc1)N1CCN(C(=O)c2cccc(C(F)(F)F)c2)CCC1=O (centres undefined) | -4% | -23 | 0% | 2.7%
CC1CN(C(=O)C(C)Sc2nc3ccccc3s2)CC(C)O1 (centres undefined) | 12% | -6 | -5% | -0.9%
O=C(N/N=C/c1ccco1)C1COc2ccccc2O1 (centres undefined) | 0% | -1 | -3% | -3.7%

(continued)
SMILES | Rango release inh | GLA inh pH 4.5 | miR-21 reporter | Rango-impB inh
CN(C)c1ccc(CNC(=O)C2CCN(S(=O)(=O)c3ccc4c(c3)CCC(=O)N4)CC2)cc1 | 14% | 3 | 1% | -2.9%
O=C(c1ccc([N+](=O)[O-])cc1)N1CCN(C(=O)c2cccs2)CC1 | 13% | 0 | -11% | 5.2%
COc1cccc(NC(=S)N(CCN(C)C)C(C)c2ccco2)c1 (centres undefined) | -24% | 6 | -17% | 2.0%
Nc1nonc1-n1nnc(C(=O)N/N=C/c2c(F)cccc2Cl)c1-c1ccc2c(c1)OCO2 | -11% | / | -4% | 4.7%
O=C(N/C=N/O)C(c1ccccc1)c1ncc(C(F)(F)F)cc1Cl (centres undefined) | -9% | / | -3% | -2.4%
CCCCCc1c(C)nc(Nc2ccc(F)cc2)[nH]c1=O | 5% | -8 | -3% | -0.9%
Cc1cc(=O)oc2cc(OCC(=O)Nc3ccc(CN4CCOCC4)cc3)ccc12 | -1% | / | -5% | -3.3%
O=C(NCCCn1ccnc1)c1cccc(S(=O)(=O)NCc2ccccc2)c1 | 3% | 3 | 8% | 0.1%

Entries of single compounds from above:
O=C(c1ccc([N+](=O)[O-])cc1)N1CCN(C(=O)c2cccs2)CC1 in the list: Rango release inh: 13%; GLA inh pH 4.5: 0; miR-21 reporter: -11%; Rango-impB inh: 5.2%
Nc1nonc1-n1nnc(C(=O)N/N=C/c2c(F)cccc2Cl)c1-c1ccc2c(c1)OCO2 in the list: Rango release inh: -11%; GLA inh pH 4.5: /; miR-21 reporter: -4%; Rango-impB inh: 4.7%

Continuation.
SMILES | Rango release inh | GLA inh pH 4.5 | miR-21 reporter | Rango-impB inh
CCOc1ccc(S(=O)(=O)N(CC)CC)cc1NC(=O)CSCc1c(C)noc1C | 10% | / | / | 4.6%
O=C(Nc1cccc(/C=C/c2nc3ccccc3c(=O)[nH]2)c1)c1ccccc1Cl | 2% | 11 | -20% | ?
C/C(CC(=O)Nc1ccc(Br)cc1)=N\NC(=O)c1cccc(O)c1 | -10% | / | -8% | -2.4%
CCOC(=O)c1sc(NNC(=O)c2ccc(C)cc2)nc1C | 20% | -14 | -21% | -6.0%
CC(=O)C(Sc1nc(N2CCOCC2)nc(N2CCOCC2)n1)C(=O)Nc1ccccc1 (centres undefined) | -2% | -5 | -21% | 1.0%
CCCCC(CCC(=O)Nc1ccc(C(=O)OCC)cc1)C(=O)O (centres undefined) | -27% | -2 | -10% | -0.4%
Cc1nc(N)sc1-c1csc(Nc2ccccc2)n1 | ? | -2 | -33% | -6.0%
O=C(CCS(=O)(=O)c1ccc(Br)cc1)NCc1ccco1 | 31% | / | 1% | -1.0%

(cont.)
SMILES | Rango release inh | GLA inh pH 4.5 | miR-21 reporter | Rango-impB inh
Cc1ccc(S(=O)(=O)N2CCN(C(=O)CSc3n[nH]c(N)n3)CC2)c(C)c1 | -9% | / | / | 1.3%
CC(C)N(C(=O)[C@H]1C[C@H](CC(=O)NCCCn2ccnc2)C(=O)N2CCc3c([nH]c4cc(CCC(=O)N(C)C)ccc34)[C@]12C)C(C)C | -3% | / | / | 3.9%
Cc1cc(=O)n(C)c(=O)n1CCCCOc1ccc([N+](=O)[O-])cc1 | 34% | 4 | -2% | -1.6%
CCOc1ccc(N2CC(C(=O)NCCCN3CCOCC3)CC2=O)cc1 (centres undefined) | 16% | 3 | -3% | 3.8%
CN(C(=O)c1ccc(NC(=O)Cc2ccc(NC(=O)C3CCN(C(=O)CCc4ccccc4)CC3)cc2)cc1)C1CC1 | 0% | / | / | 1.8%
CCC(=O)Nc1ccc(C(=O)Nc2cccc(OC)c2)cc1 | -9% | 11 | -37% | -3.4%
Cc1cc(N=Nc2ccccc2)c(NCC(O)C(O)C(O)CO)cc1C (centres undefined) | -11% | -4[21.1 µM] | -10% | ?
O=C(OCC(=O)N1CCN(c2ccccc2)CC1)c1ccc[n+]([O-])c1 | 1% | 0 | 5% | -2.5%

(cont.)
SMILES | Rango release inh | GLA inh pH 4.5 | miR-21 reporter | Rango-impB inh
C/C(=N\NC(=O)c1ccc(CSc2nc(C)cc(C)n2)cc1)c1ccco1 | 1% | 6 | -3% | -0.4%
CSc1ccccc1NC(=O)COC(=O)c1ccc(-n2nc(C)cc2C)cc1 | 0% | / | / | 2.0%
Fc1ccc2nc(Nc3nc4c(F)cccc4s3)sc2c1 | -7% | -2 | -24% | ?
COc1cccc(NC(=O)CSc2nc3c(c(-c4ccco4)c2C#N)CCCC3)c1 | 1% | -21 | -4% | -2.2%
Cc1ccc(C2=NN=C(NC(=O)CSc3nnc4c5ccccc5n(C)c4n3)SC2)cc1 | 13% | -6 | 0% | ?
Cn1c(NC(=O)C2c3ccccc3Oc3ccccc32)cc(=O)n(C)c1=O | -14% | -5 | -3% | 3.3%
COc1cccc(CC2(CO)CCCN(Cc3cn[nH]c3-c3ccc(F)cc3)C2)c1 (centres undefined) | -12% | -11 | -1% | 0.8%
O=S(=O)(c1ccc(F)cc1)N1CCCN(c2nccc(C(F)(F)F)n2)CC1 | 9% | -3 | -2% | 0.3%

Continued.
SMILES | Rango release inh | GLA inh pH 4.5 | miR-21 reporter | Rango-impB inh
O=S(=O)(CCNCc1ccco1)NC1CCCCC1 | 15% | / | / | -1.3%
O=C1C[C@@H]2c3c(cccc3CN1Cc1ccccc1)C[C@@H](O)[C@H]2O | 6% | / | / | 3.6%
Oc1ccc(-c2nccs2)cc1 | 8% | / | / | -2.3%
Cn1cccc1/C=N/n1c(-c2ccc(C(C)(C)C)cc2)n[nH]c1=S | 24% | 10 | -37% | 2.9%
Cc1cc(Oc2cnn(C(C)(C)C)c(=O)c2Cl)cc(C(C)C)c1 | 5% | 0 | -1% | -4.1%
CC(C)c1nnc(NC(=O)COc2ccc3ccccc3c2)s1 | 0% | / | -3% | 0.2%
COc1cc(C(=O)c2cocc2C(=O)c2ccc3c(c2)OCO3)cc(OC)c1OC | 1% | -7 | ? | 0.6%
CC(=O)N1N=C(c2ccc(Br)cc2)OC1(C)CC(=O)Nc1ccccc1 (centres undefined) | 16% | 0 | 18% | 2.5%

Rewritten with two lines to a compound: part of the list above.
Value order: Rango release inh | GLA inh pH 4.5 | miR-21 reporter | Rango-impB inh
- Oc1ccc(-c2nccs2)cc1
    8% | / | / | -2.3%
- Cn1cccc1/C=N/n1c(-c2ccc(C(C)(C)C)cc2)n[nH]c1=S
    24% | 10 | -37% | 2.9%
- Cc1cc(Oc2cnn(C(C)(C)C)c(=O)c2Cl)cc(C(C)C)c1
    5% | 0 | -1% | -4.1%
- CC(C)c1nnc(NC(=O)COc2ccc3ccccc3c2)s1
    0% | / | -3% | 0.2%

Entries from the list above that have a thiophene ring, fused or not, in the order listed:
SMILES | Rango release inh | GLA inh pH 4.5 | miR-21 reporter | Rango-impB inh
Cn1c(SCc2nc(-c3ccccc3)no2)nnc1-c1cccs1 | 11% | -4 | -20% | 3.7%
NC(=O)c1cc(-c2ccccc2)sc1NC(=O)Cc1ccc(S(=O)(=O)N2CCOCC2)s1 | ? | 15 | -3% | 1.3%
O=C(c1ccc([N+](=O)[O-])cc1)N1CCN(C(=O)c2cccs2)CC1 | 13% | 0 | -11% | 5.2%

(further entries)
SMILES | Rango release inh | GLA inh pH 4.5 | miR-21 reporter | Rango-impB inh
O=C1[C@H]2[C@@H](C(=O)N1c1cc(Cl)cc(Cl)c1)[C@]1(C(=O)Nc3ccccc31)N1CCC[C@@H]21 | 5% | -3 | -2% | 5.6%
CCOC(=O)NN1C(=O)c2ccccc2NC1c1ccc(N(C)C)cc1 (centres undefined) | -2% | -4 | -27% | -4.6%
Cc1ccc(S(=O)(=O)N2CCN(C(=O)COC(=O)COc3ccc(Cl)cc3)CC2)c(C)c1 | 50% | / | / | -0.4%
COc1ccc(OC)c(-c2cc(C(=O)NCc3cccs3)no2)c1 | 3% | -4 | -32% | 2.9%
O=C(CSc1ccc2ccccc2n1)N/N=C/c1ccccc1O | 10% | / | 16% | 1.2%
N#Cc1c(N2CCOCC2)nc(-c2ccco2)c2c1CCCC2 | -29% | 15 | 3% | ?
O=C(C1CCN(c2nnc(-n3cccc3)s2)CC1)N1CCN(c2cccc(C(F)(F)F)c2)CC1 | -5% | -12 | 9% | 0.3%
O=C(COC(=O)COc1ccccc1)Nc1ccc(Cl)cn1 | 18% | / | / | -1.6%

A portion of the library; the hit share may differ from the screen's.
